# Screening results: PubChem, ICCB-Longwood Screening Facility, Harvard Medical School
# Choline anaer gr: growth inhibitors of anaerobic choline-fed gram-negatives, minimal medium, absorbance; hit rate 0.2% among 55,000; calls only; Gram-negative bacterium anaerobic choline minimal medium; active compounds read low; many inactives read as strong as hits in the columns shown;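 active = growth z-score on choline under -2 at 7 or 20 h with little or no fall on glycerol, limits in tiers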;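 note: stock transfer was 300 nL into about 50 µL; the organism is E. coli; final concentration not given here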
# Choline anaer gr early: recorded beside Choline anaer gr, whose call it bears; z-score; measured here: choline growth z-score, timepoint 1;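 score of optical density at 7 h as mean of two plates; lower means less growth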
# Starred values were filed as active, the others as inactive; i = inactive; & = joins results of further samples. The list is partial, so the mix of outcomes need not match the whole.
# Values in the order: Choline anaer gr	Choline anaer gr early
- CCN(CC)CCNC(=O)C1CCN(c2ccc(Cl)cc2)C1=O (stereo unspecified)
  i	0.93
- Cc1nc2n(n1)C(C(=O)Nc1ccc(C(C)C)cc1)CC(=O)N2 (stereo unspecified)
  i	0.77
- CN(CCc1noc(C(=O)NCc2ccccc2)n1)C(=O)C1CC1
  i	-0.36
- CNS(=O)(=O)c1ccc(NC(=O)c2cnn3c(C(F)F)cc(-c4ccccc4)nc23)cc1
  i	0.21
- CC(C)CCN1C(=O)c2c(-n3cccc3)c3ccccc3n2CC1(C)C(=O)NC1CCCC1 (stereo unspecified)
  i	-1
- Cc1cccc(OCC(=O)Nc2noc(-c3ccccc3)n2)c1
  i	-1.7
- CC(C)CCn1c(=O)c2c(nc3n2CCS3)n(C)c1=O
  i	0.31
- COc1cc(OC)cc(C(=O)Nc2cc(C)nn2-c2ncnc3c2cnn3-c2ccccc2)c1
  i	0.51
- COc1ccc(NC(=O)N2CCN(Cc3nc(-c4ccccc4)oc3C)CC2)cc1OC
  i	-1.2
- Cc1cc(C)c(S(=O)(=O)N2CCc3cc4ccccc4nc32)c(C)c1
  i	2.6
- Cn1c(=O)c(C(=O)Nc2cccnc2)nn(-c2ccc(F)cc2)c1=O
  i	-1.6
- COCCNC(=O)C1CCCN(C(=O)c2[nH]c(C)c(C(=O)OC)c2C)C1 (stereo unspecified)
  i	-1.9
- c1ccc(-c2ccc(CNCc3ccc4c(c3)OCO4)o2)cc1
  i	-1.8
- CC(C)Sc1c(C(C)C)cnc2c1c(=O)n(C)c(=O)n2C
  i	0.64
- Cc1noc(-c2ccccc2NC(=O)C2CC(=O)N(Cc3ccccc3)C2)n1 (stereo unspecified)
  i	-0.5
- Cc1ccc(Cl)cc1Nc1nnc(C)c(=O)[nH]1
  i	0.5
- CCCCCN(c1nc2nc(C)cc(C)n2n1)S(=O)(=O)c1ccc(C)cc1
  i	-0.95
- CCN(CC)C(=O)CN1c2ccc(F)cc2-c2ccccc2S1(=O)=O
  i	0.25
- CCOC(=O)C1=C(C)NC(C)=C(C(=O)OCC)C1c1ccccc1/C=C/C(=O)OC(C)(C)C
  i	0.13&0.45
- CCN(CC)CCCNC(=O)CCCN1C(=O)C(c2ccccc2)Oc2cccnc21 (stereo unspecified)
  i	-0.16
- O=C(Cn1c(=O)c(C(F)(F)F)nc2ccccc21)Nc1ccc(Br)cc1F
  i	0.7
- O=S(=O)(c1ccccc1)c1nc(-c2ccc(Cl)cc2)oc1N1CCCC1
  i	0.58
- Brc1ccc(OCc2nn3c(-c4ccccn4)nnc3s2)cc1
  i	-0.23
- C=CCn1nc(C)c(-c2cc(C(=O)O)[nH]n2)c1C
  i	-0.01
- O=C(CN1C(=O)c2ccccc2S1(=O)=O)Nc1cccc(O)c1
  i	0.43
- CCNC(=O)NC1CCN(C(=O)C2CCC2)C1 (stereo unspecified)
  i	0.76
- Cc1ccc(S(=O)(=O)CCC(=O)Nc2nc(-c3ccncc3)cs2)cc1
  i	0.45
- O=C(NCc1ccco1)c1nc(C2CC2)nc2c1OCCO2
  i	0.39
- COc1cccc(N2CCN(C(=O)CCC3=NS(=O)(=O)c4ccccc4N3)CC2)c1
  i	0.51
- CCN(C(=O)CSc1nnc(-c2ccoc2C)o1)c1ccccc1
  i	0.95
- COc1ccc(CNc2nc(-c3cccnc3)nn2S(=O)(=O)c2ccccc2)cc1
  i	-1.4
- O=C(CN1CCN(Cc2ccccc2Cl)S1(=O)=O)Nc1ccc(F)cc1F
  i	0.09
- CC(S)C(=O)NCC(=O)O (stereo unspecified)
  i	0.16
- COCCCn1c2c(c(SCc3ccccc3)nc1=O)CCC2
  i	-0.47
- Cn1cc[nH]c1=S
  i	0.27&0.59&0.73
- CCN1C(=O)c2cc3ccccc3n2CC1(C)C(=O)NCC(=O)NCCOC (stereo unspecified)
  i	-1.1
- Cc1ccc(NC(=O)CSc2cc(N3CCC(C)CC3)ncn2)c(C)c1
  i	0.29
- Cc1nn(-c2ccc3nnc(C)n3n2)c2c1C(c1ccccc1OC1CCCC1)CC(=O)N2 (stereo unspecified)
  i	0.05
- Cc1ccc2c(cnn2C(=O)CCCC(=O)NCc2ccc(Cl)cc2)c1
  i	0.82
- COc1ccc(CC2=NS(=O)(=O)c3cc(S(=O)(=O)N4CCCCC4)ccc3N2)cc1OC
  i	-1.1

# Continued, overlapping the part above by 7 compounds.
# Values in the order: Choline anaer gr	Choline anaer gr early
- COCCCn1c2c(c(SCc3ccccc3)nc1=O)CCC2
  i	-0.47
- Cn1cc[nH]c1=S
  i	0.27&0.59&0.73
- CCN1C(=O)c2cc3ccccc3n2CC1(C)C(=O)NCC(=O)NCCOC (stereo unspecified)
  i	-1.1
- Cc1ccc(NC(=O)CSc2cc(N3CCC(C)CC3)ncn2)c(C)c1
  i	0.29
- Cc1nn(-c2ccc3nnc(C)n3n2)c2c1C(c1ccccc1OC1CCCC1)CC(=O)N2 (stereo unspecified)
  i	0.05
- Cc1ccc2c(cnn2C(=O)CCCC(=O)NCc2ccc(Cl)cc2)c1
  i	0.82
- COc1ccc(CC2=NS(=O)(=O)c3cc(S(=O)(=O)N4CCCCC4)ccc3N2)cc1OC
  i	-1.1
- CCN1C(=O)C2CCCCN2c2ccc(C(=O)NCc3ccccc3)cc21 (stereo unspecified)
  i	-0.05
- Cc1cc2c(cc1S(=O)(=O)N1CCC(C(=O)NCc3ccccc3Cl)CC1)OCC(=O)N2
  i	1.2
- CCC(=O)Nc1cccc(-c2cc3ccccc3[nH]2)c1
  i	0.35
- Cc1ccc(C2CCCN2C(=O)Nc2ccc3c(c2)OCO3)cc1 (stereo unspecified)
  i	-0.64
- COc1ccc(SCc2cc(=O)n3nc(-c4ccc(OC)cc4)sc3n2)cc1
  i	-0.1
- COC(=O)c1sccc1NC(=O)Nc1ccc2nc3n(c(=O)c2c1)CCCC3
  i	-0.57
- O=C(NC1CCCCC1)N1CCc2cc(S(=O)(=O)NC3CCCCC3)ccc21
  i	-0.51
- O=C(CN1C(=O)C2CCCC2=Nc2ccccc21)Nc1ccc2c(c1)CCC2 (stereo unspecified)
  i	1.1
- O=C(c1ccc(-n2nnc3cccnc32)cc1)N1CCc2ccccc21
  i	1.2
- COc1ccc(-n2nc(C(=O)NC3CCCCC3)c(=O)n(C)c2=O)cc1
  i	-1.1
- CN(C(=O)c1ccc(Oc2ccnc(-c3ccc(F)cc3)n2)cc1)C1CCCCC1
  i	-0.01
- CCN1CCN(c2ccc3nnc(C4CCC4)n3n2)CC1
  i	-2.6
- C=CCNc1cc(C)nc2nc(-c3cccnc3)nn12
  i	-1.1
- CCc1nc(CN2C(=O)COc3cc(S(=O)(=O)NC4CC4)c(C)cc32)no1
  i	0.86
- COc1ccc(OCc2nn3c(CSc4ccccc4)nnc3s2)cc1
  i	-0.42
- COC(=O)c1ccccc1NC(=O)CSc1nc(N2CCc3ccccc3C2)nc2ccccc12
  i	0.42
- Cc1nc(-c2cc3cccc(C)c3nc2NCCc2ccccn2)no1
  i	0.69
- Cc1ccc(-c2cc(N3CCN(C(=O)NC(C)(C)C)CC3)ncn2)cc1
  i	1.1
- CCC(C)NC(=O)c1ccc2c(=O)n(C(C)C)c3nn(CC(=O)NC(C)(C)C)c(=O)n3c2c1 (stereo unspecified)
  i	0.23
- Cn1c(=O)c2c(-c3ccccc3)n3c(c2n(C)c1=O)C(c1cccc(O)c1O)Nc1ccccc1-3 (stereo unspecified)
  i	-0.23
- COc1ccccc1-c1cc(C(F)(F)F)n2ncc(C(=O)N3CCCC3c3cc(C)no3)c2n1 (stereo unspecified)
  i	0.47
- CC(C)(C)c1ccc(S(=O)(=O)NCc2nc(N)n(S(=O)(=O)c3ccc(C(C)(C)C)cc3)n2)cc1
  i	0.06
- Nc1ccc(CCNc2ncnc3c2ncn3C2OC(CO)C(O)C2O)cc1 (stereo unspecified)
  i	0.75
- CCS(=O)(=O)c1ncc(Cl)c(C(=O)Nc2sc3c(c2C(=O)NCC2CCCO2)CCC3)n1 (stereo unspecified)
  i	-1.6
- Cc1nn(-c2ccc(F)cc2)c2sc(C(=O)NCC3CCCO3)cc12 (stereo unspecified)
  i	-0.6
- O=C(NCCCc1ccccc1)C1CCN(c2nn3c(=O)c4c(nc3s2)CCCC4)CC1
  i	-0.29
- Cc1ccc2c(c1)C(Cc1ccsc1)C(=O)N2 (stereo unspecified)
  i	0.02
- COc1ccc2cc3n(c2c1)CC(C)(C(=O)NC1CCCC1)N(C1CCCC1)C3=O (stereo unspecified)
  i	-0.2
- COc1ccc(S(=O)(=O)Nc2cc3c(cc2Sc2ccccc2)n(C)c(=O)n3C)cc1
  i	1.1
- CN1CCN(S(=O)(=O)c2cc(F)cc(F)c2)CC1c1ccc(F)cc1 (stereo unspecified)
  i	0.14
- Cc1nn(-c2ccccc2)c2c1C(c1cccnc1)C1=C(CCCC1=O)N2 (stereo unspecified)
  i	0.93
- COC(=O)c1c(-c2ccc(F)cc2)noc1Nc1cc(Cl)c(OC)cc1OC
  i	0.77
- CC(C)NS(=O)(=O)c1ccc(-c2cnc(C3CCCC3)o2)s1
  i	-0.28
- CCOc1ccccc1NC(=O)N1CCCC(C)(C(=O)NCc2ccccc2)C1 (stereo unspecified)
  i	-0.28
- CCc1ccc(C2c3c(n[nH]c3C)C(=O)N2c2ccc(Br)cc2)cc1 (stereo unspecified)
  i	1.2
- CCCC(O)c1nc2ccccc2n1CCCOc1cccc(C)c1 (stereo unspecified)
  i	0.47
- Cc1cccc(C)c1NC(=O)N1CC(C)OC(C)C1 (stereo unspecified)
  i	0.53
- Cc1ccc(-n2c(C)c(C)c3c2ncn2nc(CCCN4C(=O)c5ccccc5C4=O)nc32)cc1
  i	0.23
- CCS(=O)(=O)Nc1ccc2c(c1)N(C(=O)c1ccccc1)CCC2
  i	-0.71
- Cc1ccc2c(c1)c(-n1cccc1)c1n2CC(C)(C(=O)NC2CCCC2)N(CCC2=CCCCC2)C1=O (stereo unspecified)
  i	0.83
- O=C(Nc1ccc2c(c1)OCCO2)C1CCN(c2ccc(-c3ccc(F)cc3)nn2)CC1
  i	1.1
- CCCc1nc2nc(C)c(CC(=O)N3CCc4ccccc4C3)c(C)n2n1
  i	-0.24
- O=C(CCc1nc(-c2cc3ccccc3[nH]c2=O)no1)N1CCCCC1
  i	-0.06
- CCOC(=O)c1c(-c2ccccc2)csc1NC(=O)c1ccc2c(c1)CC(c1ccccc1)OC2=O (stereo unspecified)
  i	0.3
- COc1ccc(NC(=O)C2CCCN2S(=O)(=O)c2cc3c(cc2C)NC(=O)CO3)cc1 (stereo unspecified)
  i	-0.4
- Cc1ccccc1-c1noc(N2CCC(C(=O)N3CCOCC3)CC2)n1
  i	0.44
- Cc1ccc2nc(NCc3ccc(C(=O)O)cc3)c(-n3nc(C)cc3C)nc2c1
  i	-0.45
- Cc1ccc(-c2cc3nccc(-c4cc(Cl)c(C)cc4O)n3n2)cc1
  i	0.39
- CCc1c(C)nc2ncnn2c1Nc1ccc(C)cc1C
  i	-0.21
- COc1ccccc1NCc1nc2nc(C)cc(=O)n2[nH]1
  i	-0.13

# Whole records, looked up by structure:
# O=C(Nc1ccc2c(c1)OCCO2)C1CCN(c2ccc(-c3ccc(F)cc3)nn2)CC1 is listed as Choline anaer gr: i; Choline anaer gr early: 1.1
# CCCc1nc2nc(C)c(CC(=O)N3CCc4ccccc4C3)c(C)n2n1 is listed as Choline anaer gr: i; Choline anaer gr early: -0.24

# (further entries)
# Values in the order: Choline anaer gr	Choline anaer gr early
- Cc1cccc(C(=O)Nc2nnc(Cc3nc4ccccc4[nH]3)s2)c1
  i	0.2
- O=C(CN1C(=O)CCn2nc(-c3ccc(Cl)cc3)cc21)N1CCCC1
  i	-0.71
- CCCc1cc(C2CCCN2C(=O)NCC(C)C)no1 (stereo unspecified)
  i	0.97
- COc1ccc(NC(=O)Cc2ccc(-n3c(C)nc4cccnc43)cc2)cc1Cl
  i	2.9
- Cc1sc(-c2nc(C(C)C)cs2)cc1S(=O)(=O)NCc1cccs1
  i	-0.6
- Cc1cccc(-c2noc(CSc3nccn3-c3ccccc3)n2)c1
  i	-1.3
- Cc1ccc(Cn2c(=O)n3nc(-c4ccccc4)nc3c3ccccc32)cc1
  i	-0.62
- Cc1cc(C)cc(C(=O)NCCc2csc3nc(-c4ccccc4C)nn23)c1
  i	0.25
- Cn1c(N2CCN(C(=O)CC3CCCCC3)CC2)cc(=O)n(C)c1=O
  i	-0.46
- Cc1cccc(C)c1NS(=O)(=O)c1cc(-c2nc(C)c(C)s2)sc1C
  i	0.98
- O=C(CN1CCSc2ccccc21)N1CCN(C2CCCCC2)CC1
  i	-0.24
- CCOC(=O)c1ccc(N2C(=O)C(Oc3ccccc3)C2c2ccc(C(=O)OC)cc2)cc1 (stereo unspecified)
  i	-0.02
- Cc1nc2ccccc2c(=O)n1Cc1noc(Cc2ccccc2Br)n1
  i	-0.17
- CCOC(=O)c1[nH]c(C)c(CCC(=O)N2CCCC(C(=O)NCCC3=CCCCC3)C2)c1C (stereo unspecified)
  i	1.3
- CN(C)CCNC(=O)CC1CCN(S(=O)(=O)c2ccc(Cl)cc2)CC1
  i	-0.17
- Cc1ccc2cc3c(nc2c1)N(S(=O)(=O)c1ccc2c(c1)OCO2)CC3
  i	-0.51
- CCC(=O)Nc1cccc(-c2noc(C3CCCN(C(=O)c4ccc(Cl)cc4OC)C3)n2)c1 (stereo unspecified)
  i	-1.1
- CC(C)c1cc(C2CCCN2Cc2cc(F)cc(F)c2)no1 (stereo unspecified)
  i	0.62
- CN1C(=O)c2cc(C(=O)NC3CCCC3)nn2CC1(C)C(=O)NC1CCCCC1 (stereo unspecified)
  i	-0.02
- CN1C(=O)c2cc(NC(=O)c3ccc(N(C)C)cc3)ccc2N2CCN=C12
  i	-0.29
